Compound activity from PubChem.
RanGTP-Imp inh = disruptors of Ran-importin-beta complex formation – biochemical, FRET, CFP-Ran, YFP-importin-beta, homogeneous, primary screen; cell-free CFP-Ran/YFP-importin-beta FRET ratio; 300,000 tested, 1.1% active; inhibition, % (no concentration beside the values);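 active = most replicates above 15%; inconclusive = exactly half above 15%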;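 also: 0% = DMSO wells and 100% = Ran loaded with GDP instead of GTP; wells of about 40 µL received 100 nL stock; the first replicate is given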
Beta cell apopt = blocks beta cell apoptosis; 300,000 tested, 0.8% active; INS-1E cytokine-induced death, ATP luminescence, 48 h; percent of positive-control rescue, neutral wells zero; protection from apoptosis, % (no concentration beside the values); AID 435005;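 active = all replicates at 75% or more, or half of them and the mean; inconclusive = half reach 75% but not the mean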;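 also: 0% = cytokine-treated negative control wells and 100% = positive control rescue; higher means more ATP so stronger rescue from cytokine killing; wells of about 40 µL received 100 nL stock; the first replicate is given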
T cruzi repl = T. cruzi replication inhibition | 300,000 tested, 1.4% active | AID 1885 | T. cruzi beta-gal in NIH3T3, luminescence, 90 h | inhibition, % (test concentration not listed);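 active = mean inhibition across valid replicates above about 55%, limit read from the data; inconclusive = mean below that limit but half or more replicates reach it; inactive = mean below it, under half of replicates reach it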;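 also: signal also drops with host cell toxicity which is not excluded here; 0% = plate median of DMSO wells and 100% = zero luminescence signal; higher percent means less beta-gal luminescence so fewer parasites; stock transfer was 50 nL into about 50 µL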
Bfl-1 A1 inh = inhibitors of the anti-apoptotic protein A1, read as caspase activation; MEF A1-2A-BIM cells, Caspase-Glo 3/7 luminescence, 3 h; percent of clofoctol response, vehicle zero; caspase activation, % (no concentration beside the values); 330,000 tested, 0.066% active;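 active = over half of replicate activation scores above 10%, or exactly half above 10 with the replicate mean above 10; inconclusive = replicate mean below 10 yet half the replicates above 10; inactive = over half of replicates below 10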;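 also: wells of about 30 µL received 50 nL stock; many hits fall short of the cut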
AF4-AF9 inh = inhibitors of human MLL-AF4/AF9 interaction | inhibition, % at 10 µM | P42568 | AlphaScreen, biotin-AF4 peptide binding to FLAG-AF9 | 350,000 tested, 0.47% active;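 active = every replicate reaching a set inhibition limit, whatever the replicate mean, cut at about 25% in these data; inconclusive = mean inhibition reaches that limit but some replicates miss it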;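 also: 0% = plate neutral control median and 100% = total signal loss; the record names both 10 and 1 µM as test concentration; the first replicate is given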
Target sequence (P42568 whole entry, looked up): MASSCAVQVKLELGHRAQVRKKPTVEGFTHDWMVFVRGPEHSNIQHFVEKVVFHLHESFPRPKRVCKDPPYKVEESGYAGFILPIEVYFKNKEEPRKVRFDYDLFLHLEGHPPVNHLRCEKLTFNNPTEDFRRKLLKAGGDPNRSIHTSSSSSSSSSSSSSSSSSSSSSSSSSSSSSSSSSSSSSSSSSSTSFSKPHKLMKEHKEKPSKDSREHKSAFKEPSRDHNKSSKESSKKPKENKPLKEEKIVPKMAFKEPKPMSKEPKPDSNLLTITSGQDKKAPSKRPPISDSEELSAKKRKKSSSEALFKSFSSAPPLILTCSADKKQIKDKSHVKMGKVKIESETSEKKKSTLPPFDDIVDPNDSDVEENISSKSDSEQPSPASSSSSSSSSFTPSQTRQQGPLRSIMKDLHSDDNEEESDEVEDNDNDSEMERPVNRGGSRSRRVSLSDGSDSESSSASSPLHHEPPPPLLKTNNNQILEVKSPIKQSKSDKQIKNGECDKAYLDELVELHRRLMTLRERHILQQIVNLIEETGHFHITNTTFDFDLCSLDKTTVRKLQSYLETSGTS
Calb FLC = affects C. albicans growth with fluconazole. C. albicans CaCi-2 (fluconazole-resistant clinical isolate) + fluconazole, Alamar Blue growth, 48 h. growth inhibition, % (no concentration beside the values). 300,000 tested, 0.57% active;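 active = most replicates above 75%; inconclusive = exactly half above 75%; inactive = most below 75%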;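 also: all wells also contain fluconazole at 8 µg/ml as a sub-toxic cotreatment; 0% = median of DMSO wells and 100% = median of geldanamycin control wells; wells of about 8 µL received 7.5 nL stock; the first replicate is given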
Vif TR-FRET = inhibitors of Vif binding to APOBEC3G peptide, primary screen, biochemical, TR-FRET, GST-Vif 1-94, biotin-A3G peptide, dose response retest (AID 1117319); TR-FRET GST-Vif / biotin-A3G peptide binding; higher % means a stronger effect; test concentration not given here; strong numbers were not always called active; one-dose inhibition, %; IC50 in µM for titrated hits; 260,000 tested, 0.57% active;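 active = above the screen mean plus three standard deviations and confirmed in dose response; inconclusive = results disagree or hit not tested in dose response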;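 also: Vif residues 1-94 fused to GST binding biotinylated APOBEC3G peptide 110-148; 0% = full assay without inhibitor and 100% = GST in place of GST-Vif; retest series ran down from 100 µM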
rRNA inh HTS = inhibits bacterial ribosomal RNA function over humanized ribosomes; E. coli WT GFP vs humanized-ribosome RFP mutants, fluorescence, 24 h; hits give low values; DMSO median 0, no signal -100; GFP signal change (wild-type ribosome), % (no concentration beside the values); 350,000 tested, 1.6% active; AID 720706;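 active = significant combined selectivity score with lowered wild-type GFP, culture density cut under 30%, mutant RFP and density less affected; inactive = any of these conditions unmet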; also: one replicate is shown; some compounds called inactive have numbers as strong as hits
rRNA inh HTS OD600 = recorded beside rRNA inh HTS, whose call it bears; OD600 change, %; measured here: OD600 growth;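 optical density of the mix in the first replicate; 0 = DMSO median and -100 = no signal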
rRNA inh HTS RFP = second read-out of rRNA inh HTS, no call of its own (marks repeat the call); RFP signal change, %; measured here: RFP humanized mutant strains;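 first replicate; 0 = DMSO median and -100 = no signal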
The depositor's hits bear a star; ? = inconclusive; / = not tested or not shown; & = joins results of further samples. Only part of the results is shown. The share of hits here may be higher or lower than overall.

Compound	RanGTP-Imp inh	Beta cell apopt	T cruzi repl	Bfl-1 A1 inh	AF4-AF9 inh	Calb FLC	Vif TR-FRET	rRNA inh HTS	rRNA inh HTS OD600	rRNA inh HTS RFP
CSCCC(NS(=O)(=O)c1ccc(Cl)cc1)C(=O)OCC(=O)c1ccc(F)cc1 (centres undefined)	-3.0	-11	-14	-0.3	/	-20	1%	/	/	/
COc1ccc(OC)c(C2c3c(oc4ccccc4c3=O)C(=O)N2CCCN(C)C)c1 (centres undefined)	2.2	-6	-7	0.1	/	2	1%	/	/	/
Cc1ccc(-c2nc(CS(=O)(=O)CC(=O)N3CCc4ccccc4C3)c(C)o2)cc1	-1.1	-4	2	-0.4	4.5	4	7%	-29	-34	2.6
COc1ccc(OC)c(NS(=O)(=O)c2ccc3c(c2)C(C)(C)C(=O)N3C)c1	9.3	-2	-4	0.9	/	12	1%	/	/	/
O=C(N/C(=C/c1cccnc1)C(=O)N1CCOCC1)c1ccccc1Cl	1.0	-2	-10	0.2	/	-12	/	22	-7	-1.2
CCN(CC)Cc1c(C(=O)N/N=C/c2cccs2)nnn1-c1nonc1N	?	-12	3	0.1	-3.1	4	/	3	1	3.1
Cc1ccc(C2=NS(=O)(=O)N(C)C(C(=O)N3CCOCC3)=C2)cc1	-2.3	-6	1	0.4	2.2	-9	/	2	4	-4.6
O=C1C(Cl)=C(N2CCOCC2)C(=O)N1c1ccccc1F	-5.9	2	-8	0.7	-0.9	-4	/	5	7	0.6
COc1cnc(-c2ccccn2)nc1Sc1ccc(C)cc1	0.5	92*	0	0.4	1.4	20	5%	-46	-67	-8.7
CCn1c(SCC(=O)c2ccc(Br)cc2)nnc1C(C)NC(=O)Cc1ccc(OC)cc1 (centres undefined)	-5.5	/	-1	/	/	31	2%	/	/	/
O=C(NCc1ccccc1Cl)C1CCCN1S(=O)(=O)c1ccccc1F (centres undefined)	-1.6	/	-4	-1.5	-0.9	5	11%	3	5	7.8
COC(=O)c1ccccc1C(=O)N(Cc1cccnc1)CC1CCCN(C2CCCCC2)C1 (centres undefined)	2.2	3	13	-0.4	3.0	-6	/	6	13	1.2
CCOC(=O)COc1ccc2c(c1)c(C(C)=O)c(C)n2-c1ccc(OC)cc1	1.0	-1	0	0.2	0.1	6	-1%	-16	-18	1.9
O=C(c1cccc(F)c1)N1CCN(C(=O)c2cc3nc(-c4ccco4)cc(C(F)(F)F)n3n2)CC1	4.2	-6	-11	-0.3	2.0	17	/	-6	-12	2.7
N#Cc1sc2nc(-c3cccs3)cc(-c3ccc(F)cc3)c2c1N	-18	2	4	0.1	/	4	16%	/	/	/
CC(=O)c1ccc(NC(=S)NC(=O)/C=C/c2ccc(F)cc2)cc1	5.0	0	-24	0.7	/	2	-6%	9	12	-0.7
O=C(Cc1c(F)cccc1Cl)NNC(=O)c1ccncc1	/	0	/	-0.8	-1.8	/	15%	4	7	-2.8
N#Cc1ccc(-c2nc3ccc(Br)cc3c(=O)n2O)cc1	2.3	8	-10	-0.6	-1.7	-5	-2%	-5	-2	0.1
CC(C)CN1CCC(=O)N(CCC#N)CC1	4.2	3	-18	0.9	-1.0	8	/	17	28	15
Cc1cc(C(=O)N/N=C/C(Cl)=C/c2ccccc2)c(C)o1	0.3	6	16	-3.7	6.5	-10	-1%	-8	12	2.3
O=C(OCC(=O)N1CCCC1)c1cc([N+](=O)[O-])ccc1Cl	3.0	-7	-3	-1.2	1.3	0	8%	1	4	-3.6
Cc1cc(C(=O)NC2CCCc3c2cnn3-c2ccccc2F)nc(C)n1 (centres undefined)	1.9	-16	-2	-0.7	-5.6	6	4%	-4	-5	-5.2
O=C(NCCc1ccncc1)c1ccc2nc(Cc3cccc(Cl)c3)oc2c1	-1.3	-7	11	-0.4	-0.1	0	/	-7	-25	3.1
COc1ccc(CNC(=O)CN2CCC(NC(=O)c3ccccc3C)CC2)cc1	2.0	-7	-4	-0.2	-1.3	1	/	5	11	-2.0
CC(C)NC(=O)c1cc(C(=O)c2cc(Cl)ccc2O)coc1=N	5.0	-3	-13	0.2	/	-2	19%	/	/	/
CC1CCCN(CCCNC(=O)c2ccc(CS(=O)(=O)c3c(Cl)cccc3Cl)o2)C1 (centres undefined)	-3.7	3	0	0.6	5.3	2	/	1	4	1.7
CC(=O)N1CCN(S(=O)(=O)c2ccc3c(c2)CCC(=O)N3)CC1	/	-11	/	0.4	-0.6	/	5%	1	8	0.3
Cc1ccc(Nc2c(-c3ccc(N4CCOCC4)cc3)nc3ncccn23)cc1	6.0	/	1	-0.6	0.6	1	/	6	4	0.9
C=CCCC(=O)Nc1nc(C)c(-c2csc(Nc3ccc(Cl)cc3)n2)s1	6.0	3	22	1.5	2.1	9	4%	4	5	15
CC(C)(C)OC(=O)N[C@H](C(=O)OC(C)(C)C)c1ccc(Br)cc1	/	-8	/	-1.0	-2.3	/	/	3	11	0.7
CCCSc1cc(=O)n(-c2ccccc2)nc1C(=O)O	3.3	-15	-20	-0.3	2.4	0	0%	3	5	0.7
O=C(COC(=O)COc1ccc(Cl)cc1Cl)Nc1cccnc1Cl	-0.9	1	-8	-0.7	-1.1	8	/	-3	-11	-2.5
Cn1nc(CC(=O)N2CCN(c3ccccc3)CC2)c2ccccc2c1=O	3.6	2	-24	1.8	/	-6	2%	/	/	/
CN(C)c1nnc(-c2ccc(Cl)cc2)o1	-0.7	2	-7	0.3	-5.4	-11	-6%	5	10	3.3
Cc1sc(NC(=O)CSc2nc(N)n(CC(=O)c3ccccc3)n2)c(C#N)c1C	-2.1	-18	11	0.2	3.2	34	-10%&-3%	10	3	4.1
O=C(O)CCC(=O)N1N=C(c2cccs2)CC1c1ccc(Br)cc1 (centres undefined)	0.6	6	-9	-1.0	0.9	-2	-2%	-13	-9	-7.3
CCOC(=O)c1c(S(=O)(=O)NCC(=O)NCc2ccccc2Cl)c(C)n(C)c1C	-0.2	-1	-4	0.7	-3.5	2	/	-5	-8	-3.2
Cn1c(CNC(=O)c2ccc3c(c2)OCO3)nnc1SCC(=O)Nc1ccccc1F	?	-2	-9	1.2	-0.7	-5	/	7	9	0.2
Cc1cccc(C)c1NC(=O)CCCSc1nnc(N)s1	0.3	-2	2	-0.2	-1.5	-38	-2%	7	13	-1.0
COc1ccc(Cn2cnc3c4cc(F)ccc4n(C)c3c2=O)cc1	1.8	-7	/	0.9	-1.5	20	-9%	13	15	4.5
CC(C)OP(=O)(OC(C)C)C(Nc1cccc(C(=O)O)c1)c1ccccc1 (centres undefined)	1.0	-6	-16	-0.5	-3.7	1	6%	4	-6	-4.9
O=C(Nc1cccc(C(F)(F)F)c1)c1cc(S(=O)(=O)N2CCCCC2)ccc1N1CCOCC1	0.9	1	2	1.1	/	-3	5%&64%	/	/	/
CC(=O)N(C(C)=O)C1=C(C#N)C2(CCCCC2)Cc2ccccc21	2.2	34	-14	-0.4	/	?	1%	/	/	/
O=C(NC(=S)NCc1ccco1)c1ccccc1	-0.5	-20	14	-0.2	-2.3	-6	/	6	7	0.9
O=C(Nc1ccc(N2CCOCC2)cc1)c1cnccn1	4.2	/	-1	-0.7	-39	-3	/	0	2	-2.8
CC1CN(c2nc3c(c(=O)n(Cc4ccc(Cl)cc4)c(=O)n3C)n2C)CC(C)O1 (centres undefined)	-1.2	11	-17	-1.3	/	0	19%	-2	6	2.3
COC(=O)C1=C(C)Nc2nnnn2C1c1cc(OC)ccc1OC (centres undefined)	-2.9	/	5	0.2	/	-6	-8%	/	/	/
Cc1ccc(/C(=N/Nc2ncnc3ccccc23)C(=O)O)cc1	1.6	-5	-28	-0.9	4.6	-5	4%	-3	0	-1.4
O=C(c1ccccc1)N1CCN(S(=O)(=O)N2CCOCC2)CC1	2.2	4	-9	-1.4	1.4	3	19%	13	4	0.1
C/C(=N\NC(=O)c1ccccc1)c1ccc(N2CCCCC2)cc1	0.7	7	1	-2.6	-2.8	1	-1%	8	11	2.2
COc1cc(NC(=O)c2n[nH]c(=O)c3ccccc23)cc(OC)c1	-7.9	1	-20	-2.5	-0.9	-1	9%	11	9	-0.1
COc1ccc(NC(=O)CN2CCN(c3ccccc3F)CC2)cc1	-1.3	2	-3	0.1	/	-5	9%	/	/	/
O=C(N/N=C/c1ccccc1)c1ccc(N2CCOCC2)c([N+](=O)[O-])c1	2.6	-1	2	-0.2	-4.9	4	4%	10	-3	1.7
CC1CC(C)CN(C(=O)COC(=O)c2cccc([N+](=O)[O-])c2)C1 (centres undefined)	-0.1	0	-6	2.1	-0.5	-25	1%	-5	-1	-3.3
CN(Cc1ccc(F)cc1)C(=O)CNC(=O)c1cccs1	/	-7	/	-0.6	6.5	/	-17%	/	/	/
COCCNC(=O)c1cc2sccc2n1C	5.3	-5	2	0.1	-3.2	-9	/	12	11	2.4
COC(=O)c1c(NC(C)=O)sc2c1CCN(Cc1ccccc1)C2	91*	-1	16	-0.2	10.0	4	/	-2	-13	-0.1
COc1ccc(CCNC(=O)NC(C(F)(F)F)C(F)(F)F)cc1OC	1.6	-8	-15	0.6	/	11	4%	/	/	/
CCOc1ccc(NC(=O)COC(=O)COc2cccc3c2OC(C)(C)C3)cc1	4.5	-3	0	-0.8	-1.3	-2	/	14	5	5.9
Cc1cccc(NC(=O)C(C)SCc2nc3sc(C)c(C)c3c(=O)[nH]2)n1 (centres undefined)	-5.6	/	-3	-0.1	-1.6	31	0%	12	10	0.7

Next structures follow:
Compound	RanGTP-Imp inh	Beta cell apopt	T cruzi repl	Bfl-1 A1 inh	AF4-AF9 inh	Calb FLC	Vif TR-FRET	rRNA inh HTS	rRNA inh HTS OD600	rRNA inh HTS RFP
COc1ccc(OC)c(-n2c(SCC(=O)NCC3CCCO3)nc3ccccc3c2=O)c1 (centres undefined)	/	7	/	0.4	-1.2	/	/	0	-1	-1.3
Clc1ccccc1CSc1nc2ccncc2[nH]1	12	9	17	-2.7	-1.1	0	0%	-5	-20	-8.1
CCCCNC(=O)C1CCCN1C(=O)Nc1cccc(OC)c1 (centres undefined)	-0.7	3	-13	1.5	/	9	1%	/	/	/
CCOc1ncccc1C(=O)OCC(=O)NC(=O)NC(C)C	-3.7	/	-4	1.0	-2.3	-1	-8%	11	16	0.5
O=C(NNC(=O)c1cnccc1C(F)(F)F)c1ccccc1	5.4	-9	-7	-0.2	2.7	-4	-3%	9	13	-2.0
Cc1ccc(NC2=NCC(=O)N2CCc2ccccc2)cc1C	?	-8	-3	-0.1	/	5	20%	/	/	/
